MT1-MMP act inh: MT1-MMP (human) activation inhibition. HT1080 RFP-PRO-GFP cells, GFP/RFP ratio fluorescence, overnight; percent of plate control window, DMSO zero. GFP/RFP ratio change, % at 20 µM. P50281. 360,000 tested, 0.061% active. AID 651647;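 active means GFP/RFP ratio change of at least 30% with cell ATP level not reduced by more than half and red fluorescence within 50% of control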; further: strong numbers were not always called active
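Assay system: HT1080 cells carrying an RFP-PRO-GFP reporter | Dosing: Single dose of 20 µM compound, 1% DMSO final | Incubation: Cells overnight before dosing, compound overnight, 37 °C, 5% CO2 | Evaluation: GFP/RFP fluorescence ratio | Control set: DMSO and RFP-L50D-GFP cell wells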
eIF4H FP inh: inhibitors of RNA binding by human eIF4H; Q15056; eIF4H fluorescence polarization binding assay; inhibition, % at 35 µM; 290,000 tested, 0.94% active;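 active means 50% or more with normal probe brightness, or confirmed in later tests; inconclusive means above 50% with abnormal brightness, or retests that disagree; inactive means below 50% or failed in later tests; about a fifth of its hits are not listed in these tables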;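 further: calls also rest on retests at 20 µM and on dose response follow-up; 0% = protein and probe with vehicle and 100% = probe without protein; strong numbers were not always called active; many hits fall short of the cut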
HIV Env fusion: blocks HIV Env-driven cell-cell fusion | inhibition, % at 12.3 µM | 360,000 tested, 1.1% active | AID 651610 | HeLa-JRFL Env/CEM21 cell fusion, luciferase;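 active means mean replicate inhibition score of at least 50 and every replicate individually at or above 50; inconclusive means only one of the two criteria met; inactive means mean below 50 and not all replicates reaching 50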;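 further: 0% = plate neutral controls and 100% = maraviroc near 300 nM; one replicate is shown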
Yeast UUG start: alters start codon recognition fidelity in yeast; activity score, % at 18.7 µM; S. cerevisiae UUG-firefly luciferase reporter, luminescence/redox ratio; 350,000 tested, 0.13% active;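 active means replicate mean at a twofold rise or more, about +100% in these data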;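 further: firefly luciferase made from a UUG start codon reports start codon fidelity; reporter light over untreated wells divided by growth signal over untreated wells; some hits fall short of that in this replicate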
Rce1 inh: blocks yeast Ras-converting enzyme. Q03530. yeast membranes, quenched prenylated peptide cleavage fluorescence. calls only. 290,000 tested, 0.27% active. AID 2563;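 active means fall in fluorescence gain of 50% or more versus controls, with final raw signal at or below 3038400; inconclusive means same 50% fall but final raw signal above 3038400; inactive means fall in fluorescence gain under 50%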;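 further: plate controls were neutral control wells for no effect and wells lacking membranes for full effect; tested at 10 µM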
Target sequence (Q03530 whole entry, looked up): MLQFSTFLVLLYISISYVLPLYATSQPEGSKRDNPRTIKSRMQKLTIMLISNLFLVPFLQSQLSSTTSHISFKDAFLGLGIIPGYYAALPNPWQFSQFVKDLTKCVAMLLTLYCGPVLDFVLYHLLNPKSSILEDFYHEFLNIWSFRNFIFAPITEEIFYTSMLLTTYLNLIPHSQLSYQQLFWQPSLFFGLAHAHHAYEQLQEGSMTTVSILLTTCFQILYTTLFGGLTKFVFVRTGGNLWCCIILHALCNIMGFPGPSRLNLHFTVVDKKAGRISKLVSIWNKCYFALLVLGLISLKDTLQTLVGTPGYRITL
CSC inhib: cancer stem cell inhibition; cancer stem cell-like cells viability, luminescence; inhibition, % at 7.5 µM; 300,000 tested, 1.1% active; AID 2717;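 active means mean at 75% or more and at least half the replicates too; inconclusive means mean and replicates disagree; tested in HMLE shEcad cells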;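 further: 0% = median of negative and 100% = median of positive control wells; the first replicate is given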
PABP polyA inh: blocks human PABP binding to poly(A) RNA; P11940; fluorescence polarization; inhibition, % at 35 µM; 290,000 tested, 1% active; AID 2014;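 active means 50% or more with normal probe brightness, or confirmed in later tests; inconclusive means above 50% with abnormal brightness, or retests that disagree; inactive means below 50% or failed in later tests; about a fifth of its hits are not listed in these tables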;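 further: calls also rest on retests at 20 µM and on dose response follow-up; controls were probe without protein and protein plus probe with vehicle; some compounds called inactive have numbers as strong as hits; many hits fall short of the cut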
Target sequence (P11940 whole entry, looked up): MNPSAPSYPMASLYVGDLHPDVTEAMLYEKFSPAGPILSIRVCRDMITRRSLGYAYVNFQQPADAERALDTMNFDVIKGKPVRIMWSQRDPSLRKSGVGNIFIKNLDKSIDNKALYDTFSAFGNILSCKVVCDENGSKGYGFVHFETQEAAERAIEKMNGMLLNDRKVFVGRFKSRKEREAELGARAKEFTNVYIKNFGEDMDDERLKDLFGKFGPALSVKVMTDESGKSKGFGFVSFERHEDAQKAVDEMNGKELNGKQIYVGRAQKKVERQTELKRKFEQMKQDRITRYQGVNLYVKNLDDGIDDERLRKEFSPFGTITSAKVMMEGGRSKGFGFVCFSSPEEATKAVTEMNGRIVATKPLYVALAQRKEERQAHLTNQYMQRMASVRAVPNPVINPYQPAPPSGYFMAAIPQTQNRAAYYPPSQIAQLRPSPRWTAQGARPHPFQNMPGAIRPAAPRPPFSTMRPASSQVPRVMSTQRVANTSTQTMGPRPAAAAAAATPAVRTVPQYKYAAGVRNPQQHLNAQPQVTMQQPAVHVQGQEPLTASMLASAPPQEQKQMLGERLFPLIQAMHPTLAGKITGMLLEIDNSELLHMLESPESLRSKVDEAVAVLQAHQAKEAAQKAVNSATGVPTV
eIF4H FP inh retest: also measured in eIF4H FP inh; calls as there; inhibition, %; compound at 20 µM; confirmation average;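 mean of two retest wells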
PABP polyA inh retest: second read-out of PABP polyA inh, no call of its own (marks repeat the call); inhibition, %; compound at 20 µM; confirmation repeats;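 mean of two retest wells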
MT1-MMP act inh RFP: recorded beside MT1-MMP act inh, whose call it bears; RFP signal change, %; measured here: RFP expression control read;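 0 = vehicle wells; hits needed this value within 50% of zero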
Active calls of the source: *; i = inactive; ? = inconclusive; · = no result given. Rows are unselected, and some 2.9% of all compounds hit somewhere here.

SMILES	MT1-MMP act inh	MT1-MMP act inh RFP	eIF4H FP inh	HIV Env fusion	Yeast UUG start	Rce1 inh	CSC inhib	PABP polyA inh	others
O=C(CN(Cc1ccccc1Cl)C(=O)c1ccc(CN2CCOCC2)o1)NCc1ccccc1	-4	-5	-4	-23	·	i	-9	60	eIF4H FP inh retest=-7;PABP polyA inh retest=4
CCNC(=O)NC(=O)C(C)OC(=O)C1CCN(S(=O)(=O)c2ccccc2C(=O)OC)CC1 (stereo unspecified)	1	2	-6	1	37	i	9	-7
O=C(Nc1cc(Cl)cc(Cl)c1)c1cccc(OC(F)F)c1	8	-11	2	23	-17	i	45	10
Cc1nc(Cn2c3ccc(NC(=S)NC4CCCCC4)cc3c(=O)n2C)cs1	-6	-13	·	12	-24	·	·	·
CC(C1CC1)N(C(=O)c1ccccc1[N+](=O)[O-])c1ccccc1 (stereo unspecified)	-2	2	-1	0	-7	i	1	22
Cc1nc(CN(C)c2ncnc3ccc(-c4ccc5c(c4)OCO5)cc23)cs1	-3	-2	·	-20	-22	·	·	·
COc1ccccc1CNS(=O)(=O)c1ccc2c(c1)NC(=O)C(C)S2 (stereo unspecified)	-4	-11	-10	0	-3	i	-24	-4
Cn1cccc1C(=O)OCC(=O)Nc1ccc2c(c1)OCCO2	0	4	·	-19	·	·	-9	·
CCOc1ccccc1NC(=O)CCCNC(=O)c1ccc(Cl)cc1	0	3	-5	20	-32	i	-5	5
N#CC1=C(N)NC(SCC(=O)Nc2ccccc2)=C(C#N)C12CCCC2	1	-1	2	·	27	i	-5	4
Cc1ccc2nc(NCc3ccccc3)[nH]c2c1	2	-9	4	-128	-14	·	51	-8
O=C(Nc1cccc2c1N(C(=O)c1ccco1)CCC2)c1ccco1	-2	-1	5	4	2	i	-1	-2
CCc1ccccc1NC(=O)COc1ccc2c(=O)c(Oc3cc(C)ccc3C)coc2c1	·	·	1	-9	·	i	-12	-2
O=C(NNC(=O)C1CC1)c1ccc(-c2ccccc2)cc1	6	4	2	·	12	i	20	0
O=C1C(NS(=O)(=O)c2cccs2)=C(N2CCOCC2)C(=O)c2ccccc21	13	6	-5	18	10	i	5	9
O=C(COC(=O)/C=C/c1cccc(Cl)c1)NCCC1=CCCCC1	1	5	0	-80	·	i	·	-12
Cc1onc(-c2ccccc2)c1C(=O)OCC(=O)Nc1ccc(Cl)cc1	13	-4	·	-1	-5	·	19	·
Cc1ccnc2nc(C(=O)OCCOc3ccccc3)nn12	0	0	5	·	1	i	1	5
CCc1ccc(C2=NN(CCC(=O)NC(C)c3ccc4c(c3)OCCO4)C(=O)CC2)cc1 (stereo unspecified)	-5	-4	-5	5	-14	i	-2	-2
CCOc1ccc(NC(=O)CN(C)C(=O)c2ccccc2CCc2ccccc2)cc1OCC	-9	-8	·	·	-6	i	-6	·

Structures shown so far with a carbonyl joined to an NH by a bond outside any ring (13):
SMILES	MT1-MMP act inh	MT1-MMP act inh RFP	eIF4H FP inh	HIV Env fusion	Yeast UUG start	Rce1 inh	CSC inhib	PABP polyA inh	others
O=C(CN(Cc1ccccc1Cl)C(=O)c1ccc(CN2CCOCC2)o1)NCc1ccccc1	-4	-5	-4	-23	·	i	-9	60	eIF4H FP inh retest=-7;PABP polyA inh retest=4
CCNC(=O)NC(=O)C(C)OC(=O)C1CCN(S(=O)(=O)c2ccccc2C(=O)OC)CC1 (stereo unspecified)	1	2	-6	1	37	i	9	-7
O=C(Nc1cc(Cl)cc(Cl)c1)c1cccc(OC(F)F)c1	8	-11	2	23	-17	i	45	10
Cn1cccc1C(=O)OCC(=O)Nc1ccc2c(c1)OCCO2	0	4	·	-19	·	·	-9	·
CCOc1ccccc1NC(=O)CCCNC(=O)c1ccc(Cl)cc1	0	3	-5	20	-32	i	-5	5
N#CC1=C(N)NC(SCC(=O)Nc2ccccc2)=C(C#N)C12CCCC2	1	-1	2	·	27	i	-5	4
O=C(Nc1cccc2c1N(C(=O)c1ccco1)CCC2)c1ccco1	-2	-1	5	4	2	i	-1	-2
CCc1ccccc1NC(=O)COc1ccc2c(=O)c(Oc3cc(C)ccc3C)coc2c1	·	·	1	-9	·	i	-12	-2
O=C(NNC(=O)C1CC1)c1ccc(-c2ccccc2)cc1	6	4	2	·	12	i	20	0
O=C(COC(=O)/C=C/c1cccc(Cl)c1)NCCC1=CCCCC1	1	5	0	-80	·	i	·	-12
Cc1onc(-c2ccccc2)c1C(=O)OCC(=O)Nc1ccc(Cl)cc1	13	-4	·	-1	-5	·	19	·
CCc1ccc(C2=NN(CCC(=O)NC(C)c3ccc4c(c3)OCCO4)C(=O)CC2)cc1 (stereo unspecified)	-5	-4	-5	5	-14	i	-2	-2
CCOc1ccc(NC(=O)CN(C)C(=O)c2ccccc2CCc2ccccc2)cc1OCC	-9	-8	·	·	-6	i	-6	·

Next structures.
SMILES	MT1-MMP act inh	MT1-MMP act inh RFP	eIF4H FP inh	HIV Env fusion	Yeast UUG start	Rce1 inh	CSC inhib	PABP polyA inh	others
O=Cc1ccc(-n2nncc2-c2ccc([N+](=O)[O-])cc2)cc1	1	5	3	-2	-11	i	-1	-2
Cc1cc(C(=O)N2CCCC(N3CCN(c4cccc(Cl)c4)CC3)C2)nn1C (stereo unspecified)	-1	0	0	-8	-9	i	9	0
Cn1c(=O)n(CCC(=O)O)c2ccccc21	-7	-1	21	·	-10	i	-13	-2
O=C(COC(=O)c1nc(Cl)ccc1Cl)NCc1ccc(Cl)cc1Cl	5	5	·	-8	-10	·	·	·
COc1ccc(-c2c(C)nn3c(NC4CCCC4)cc(C)nc23)cc1OC	-1	-8	7	4	-13	i	26	0
CCc1nc2ccc(C(=O)NCCOc3ccc(OC)cc3)cn2c1N(CCC(C)C)CCN(C)C	-3	-1	·	-34	4	·	·	·
Cc1ccc(NC(=O)/C=C/c2ccc(Cl)cc2)nc1	1	-2	-8	-53	-22	i	14	3
O=C(CNC(=O)N1CC(=O)Nc2ccccc21)NCc1ccc(F)cc1	1	-3	·	4	13	·	·	·
CCN(CC)S(=O)(=O)c1cc(NC(=O)CO/N=C(\N)c2ccccc2Cl)ccc1C	-1	0	·	2	-10	·	·	·
COc1ccc(CC(=O)Nc2ccc(-c3noc(-c4cc(OC)c(OC)c(OC)c4)n3)cc2)cc1	1	0	1	·	-42	·	-1	9
COc1ccc2cnn(CCOc3ccccc3)c(=O)c2c1OC	1	1	-6	·	-28	i	-14	1
CC(NC(=O)C[n+]1cccc(Br)c1)c1ccccc1 (stereo unspecified)	-4	0	-10	6	-13	i	-12	-4
CC(=O)C1=CCC(c2ccccc2)N(S(C)(=O)=O)C1 (stereo unspecified)	5	9	·	2	-11	·	·	·
COC(=O)C1C(=O)C(C(=O)c2ccccc2)C(=O)CC1(C)C (stereo unspecified)	1	4	-3	-4	4	i	-20	0
COCCn1nnnc1C(C(C)C)N1CCN(C(=O)c2ccco2)CC1 (stereo unspecified)	-3	2	2	·	-19	i	-12	10
O=C(O)CC1=C(Nc2ccccc2)C(=O)N(c2ccccc2)C1c1ccc(Cl)cc1 (stereo unspecified)	-6	2	5	4	1	i	9	-8
Cn1nnc(NC(=O)c2cccc(OCc3ccccc3)c2)n1	0	4	-3	1	-3	i	-13	-1
Cn1nc(C(=O)Nc2c(-c3ccccc3)nc3sccn23)c2ccccc2c1=O	3	7	4	-31	·	i	16	2
O=C(CSc1ncn[nH]1)c1ccccc1	-2	3	-13	-9	-19	i	2	-9
Cc1nc(N2CCOCC2)[nH]c(=O)c1C(O)C(Cl)(Cl)Cl (stereo unspecified)	4	5	-7	5	-6	i	0	-3
Cc1ccc2nc(SCC(=O)Nc3ccc4c(c3)OCCO4)nc(=O)n2c1	0	2	·	-3	-19	i	-2	·
COc1ccc(NC(=O)CSc2nnc3ccc(-c4ccccn4)nn23)c(OC)c1	1	4	·	12	-19	i	-7	·
CCOC(=O)c1nn(-c2ccc(OCC)cc2)c(C)c1C(C)=O	6	7	0	·	·	i	4	5
O=C1C2CC=CCC2C(=O)N1c1nc2n(n1)C(c1ccccc1)CC(c1ccccc1)N2 (stereo unspecified)	-2	-2	8	·	-8	i	-5	-1
COc1ccccc1N1CCN(C(=O)C2CCN(S(=O)(=O)c3ccc(Cl)cc3)CC2)CC1	-4	-8	11	·	-2	·	-7	31
COCCNC(=O)C12CC3CC(CC(Cl)(C3)C1)C2	6	2	2	1	-9	i	6	-11
O=C1[C@H](Cc2ccccc2)NCC=CC[C@@H](c2ccc(Cl)cc2)N1Cc1ccc(Cl)cc1	-1	-2	·	15	-4	·	·	·
Cn1c(=O)c2ncn(CC(=O)Nc3nc(-c4ccc(Cl)cc4)cs3)c2n(C)c1=O	0	-21	-2	37	·	i	-3	-7
Cc1cc(=O)oc2cc(OCC(=O)OCc3nnc(-c4ccccc4)o3)ccc12	-9	-3	1	-109	-8	i	·	11
CN(C(=O)c1cccc(NC(=O)Cc2ccc(NC(=O)C3CCN(C(=O)C4CC4)CC3)cc2)c1)C1CCCC1	-1	4	·	1	2	·	·	·
O=C(NCC1CCCN1S(=O)(=O)c1cccs1)c1cccc([N+](=O)[O-])c1 (stereo unspecified)	2	2	·	11	-1	i	-1	·
CCC1NC(=O)c2cc3ccccc3cc2-n2c1nc1cc(C)cc(C)c1c2=O (stereo unspecified)	0	-3	·	1	-5	·	·	·
CCn1cc(CNC(=O)C2CCC(=O)N(C3CCCCCC3)C2)cn1 (stereo unspecified)	0	1	-4	-45	-12	i	-3	-3
Cc1cc2ncn(-c3nnnn3-c3ccccc3)c2cc1C	0	1	3	-9	-17	i	-3	-4
Cc1cc(C)c(Nc2n[nH]c(=S)s2)cc1C	0	0	·	-19	-16	·	·	·
Cc1sc2nc(SCC(=O)N3CCOCC3)[nH]c(=O)c2c1C	1	8	-2	-12	-14	i	7	-13
Cc1ccccc1NC(=O)COc1coc(CN2CCN(Cc3ccccc3)CC2)cc1=O	5	-7	·	25	-37	i	-10	·
CCOC(=O)C1=C(CSc2nc3c(cc2C#N)CN(C)CC3)OC(N)=C(C#N)C1c1ccccc1 (stereo unspecified)	-42	10	?	·	0	i	7	?
CC(C)NS(=O)(=O)c1ccc(OCC(=O)NC(C)c2ccccc2)cc1 (stereo unspecified)	-1	-2	-1	-9	-3	i	-7	2
CCCSc1nc2c(=O)[nH][nH]c(=O)c2n1Cc1ccccc1	4	10	-3	-4	-7	·	-1	-4
NC(=O)c1cc(NC(=O)CCNS(=O)(=O)c2cccc(C(F)(F)F)c2)cc(C(N)=O)c1	5	6	-10	1	-13	i	3	-5
C=CCn1c(SCC(=O)Nc2cccc(OC)c2)nnc1-c1cccnc1	0	-1	1	-2	1	i	-1	-6
CCC(C)NC(=O)C(=O)NC1CCCC1 (stereo unspecified)	-1	-2	-4	0	·	·	·	10
O=C1/C(=C/c2cccnc2)N=C2CCCCCN12	2	2	0	-10	·	i	-2	-1
